ClpP mod: qHTS Assay for Activators of ClpP | purified B. subtilis ClpP, FRET peptide cleavage, 20 min | Potency, µM (doses to about 57.5 µM), for inactives: top-dose activity change, negative = active | 340,000 tested, 1.9% active | AID 651965, 2013; active = well fitted falling curve with a large enough effect; inconclusive = small, poorly fitted or top-dose-only effect; inactive = no such curve, though single readings can be large or run the other way; note: potency is the fitted concentration of half-maximal effect; the source files actives as falling curves though it sought activators and does not explain the sign; nearly all actives have a fitted effect of over 65% in size; many hits overshoot -100%
Target sequence (P80244 whole entry, looked up): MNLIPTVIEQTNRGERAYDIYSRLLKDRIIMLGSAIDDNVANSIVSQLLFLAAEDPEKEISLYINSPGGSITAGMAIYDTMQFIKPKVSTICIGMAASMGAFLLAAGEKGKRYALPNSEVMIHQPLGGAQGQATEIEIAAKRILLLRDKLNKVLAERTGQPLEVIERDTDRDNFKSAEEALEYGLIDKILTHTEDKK
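ClpP 10 microg/mL final, pH 8 Tris/KCl buffer with BSA, glycerol, Tween-20; compound pinned in; FRET-FV substrate; RT 20 min; Ex320/Em430; ΔFRET vs ADEP 5.8 microM, DMSO, no enzyme.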
Menin-MLL FL inh: inhibitors of human menin-MLL interaction, wild-type MLL peptide | 290,000 tested, under 10 active | FP activity change, % at 61.4 µM | Fluorescence polarization, fluorescein-MLL peptide displacement from menin; inconclusive = falling polarisation curve, or a change in total fluorescence; inactive = total fluorescence flat and polarisation flat or rising; no compound was filed as active; the % refers to the polarisation; negative = inhibition;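 note: % of control where 0% means no effect; inhibitors lower the polarisation; unlabelled MLL peptide was the positive control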
TRPML1 blocker: human mucolipin-1 channel inhibition | Q9GZU1 | TRPML1-inducible cells, Ca2+ dye fluorescence, FDSS; hits give low values; inhibition of EC80 agonist-evoked calcium signal | activity change, negative = inhibition, % (no concentration beside the values) | 390,000 tested, 0.02% active | AID 624415; in the data active means activity change below about -50%; inconclusive means about -30% to -50%; inactive means above about -30%;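 note: stimulus is agonist 54-4 at its EC80 concentration; % is set by controls: 0 for no effect and ±100 for the full control effect; compound concentration not given in the record; the text of the record puts the active cut at -80%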
Target sequence (Q9GZU1 whole entry, looked up): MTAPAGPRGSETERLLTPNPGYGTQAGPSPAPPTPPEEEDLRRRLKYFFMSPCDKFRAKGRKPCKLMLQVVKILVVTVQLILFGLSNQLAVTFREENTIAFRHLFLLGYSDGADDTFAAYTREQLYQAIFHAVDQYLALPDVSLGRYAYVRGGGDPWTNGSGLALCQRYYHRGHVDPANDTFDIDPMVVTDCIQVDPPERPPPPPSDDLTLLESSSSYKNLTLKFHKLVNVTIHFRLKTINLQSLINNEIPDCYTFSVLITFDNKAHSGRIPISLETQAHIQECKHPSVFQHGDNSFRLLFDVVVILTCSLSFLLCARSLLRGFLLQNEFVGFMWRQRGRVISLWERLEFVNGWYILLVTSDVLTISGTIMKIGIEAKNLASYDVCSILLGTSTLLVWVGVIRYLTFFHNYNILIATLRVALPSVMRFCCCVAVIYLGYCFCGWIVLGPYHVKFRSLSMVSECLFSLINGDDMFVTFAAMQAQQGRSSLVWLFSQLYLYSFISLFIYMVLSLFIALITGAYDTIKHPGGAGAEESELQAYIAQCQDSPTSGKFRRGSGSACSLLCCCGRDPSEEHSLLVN
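Calcium fluorescence in TRPML1-DL cells induced overnight with Tet: a 110 s read after compound pin addition, then a 110 s antagonist read after challenge with 54-4 at 4 uM final (EC80).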
gsp antagonist: antagonizes gsp, the McCune-Albright syndrome mutation | Potency, µM (titrated, usually from 76.9 µM), without a hit: at the highest dose activity change, negative = inhibition, hits mostly inhibitors | gsp-mutant cells, cAMP HTRF, 30 min; control for the full effect not named in the record | AID 624288 | 340,000 tested, 0.4% active; active = falling curve of any shape with a large fitted effect; inconclusive = falling curve, mostly with a smaller effect; inactive = flat or rising curve; cell line not stated here;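 note: intracellular cAMP measured with PDE inhibitor Ro 20-1724 present during compound exposure; potency is the fitted concentration of half-maximal effect; % is set by controls: 0 for no effect and ±100 for the full control effect; nearly all actives have a fitted effect of over 65% in size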
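G418-selected cells were plated in DMEM/10% FBS for 16-24 h at 37C, then treated with compounds plus the PDE inhibitor […] (300 uM solution added) for 30 min at 37C. Intracellular cAMP was measured by HTRF after 30 min lysis at room temperature.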
TRPML1 ag: agonists of human TRPML1 channel. 410,000 tested, 0.12% active. AID 624414. activation, % (test concentration not listed). Q9GZU1. TRPML1-expressing cells, Ca2+ dye fluorescence, FDSS; host cell line not named in the record; reference of the full effect not given here; in the data active = activation above about 50%; inconclusive = about 30% to 50%; inactive = below about 30%; note: 0% is about no effect; the text of the record puts the active cut at 80%
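Calcium fluorescence on an FDSS kinetic reader gave the read-out. Tet-induced TRPML1-DL cells were plated overnight, dye-loaded (Ca8 with quencher, 45-90 min, room temperature, dark), then read 110 s after compound addition, and again 110 s after 4uM final 54-4 (EC80).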
gsp agonist: agonists of gsp mutant (McCune-Albright syndrome); Potency, µM (doses to about 76.9 µM), for the others: at the highest dose activation (cAMP increase), usual class: activators; 340,000 tested, 0.13% active; gsp mutant cells, cAMP HTRF, 30 min; control for the full effect not named in the record; active = well fitted activation curve with a large enough effect; inconclusive = small, poorly fitted or top-dose-only effect, or another doubt; inactive = no such curve, though single readings can be large or run the other way; cell line not stated here;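 note: phosphodiesterase inhibitor Ro 20-1724 added with compounds to block cAMP breakdown; potency is the fitted concentration of half-maximal effect; nearly all actives have a fitted effect of over 60% in size; about a fifth of the inactives were tested at one dose only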
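Cells in DMEM/10% FBS with G418 were pretreated with compounds in DMSO plus […] (300 uM stock) for 30 min at 37C. cAMP was measured by HTRF (cAMP-d2 plus anti-cAMP antibody-K) after 30 min at room temperature.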
Active calls of the source: *; ? = inconclusive; . = not tested or not shown; [ ] = another dose, or the depositor's remark.

Molecule	ClpP mod	Menin-MLL FL inh	TRPML1 blocker	gsp antagonist	TRPML1 ag	gsp agonist
COc1cccc(NC(=O)c2ccc3c(c2)C(=O)N(CC2CCCO2)C3=O)c1 (centres undefined)	-2.4%	1.1	-1	-14%	-1.4	15%
Cc1cc2oc(=O)cc(CN3CCOCC3)c2cc1C(C)C	.	7.5	-4	8%	0.4	-8%[15.4 µM]
COCCNC(=O)C1CCCN(C(=O)c2ccc3sccc3c2)CC1 (centres undefined)	0.4%	.	-13	.	-0.4	.
O=C(c1cccs1)N1CCCC(N2CCN(c3ccc(F)cc3)CC2)C1 (centres undefined)	.	-1.5	12	4%	-0.5	1%
CCc1ccc(C(=O)c2cn(CC(=O)Nc3ccc(F)cc3)c3cc4c(cc3c2=O)OCO4)cc1	-0.7%	.	-23	.	1.3	.
O=C(NNc1c(F)c(F)cc(F)c1F)c1ccc(Cl)nc1	.	-6.8	-6	6%	-0.5	-10%
COc1ccccc1N(C)S(=O)(=O)c1ccc(C(=O)Nc2cc(F)ccc2C)cc1	.	.	27	-13%	3.5	10%
O=C(Nc1ccc(Nc2ccccc2)cc1)c1ccc(Br)o1	-1.9%	1.6	8	?	-0.2	6%

Two successive compounds out of the list so far:
Molecule	ClpP mod	Menin-MLL FL inh	TRPML1 blocker	gsp antagonist	TRPML1 ag	gsp agonist
COc1ccccc1N(C)S(=O)(=O)c1ccc(C(=O)Nc2cc(F)ccc2C)cc1	.	.	27	-13%	3.5	10%
O=C(Nc1ccc(Nc2ccccc2)cc1)c1ccc(Br)o1	-1.9%	1.6	8	?	-0.2	6%

The list continues:
Molecule	ClpP mod	Menin-MLL FL inh	TRPML1 blocker	gsp antagonist	TRPML1 ag	gsp agonist
C/C(=N\NC(=O)c1ccc(O)cc1)c1cccc(NC(=O)c2ccccc2C)c1	-1.2%	5.0	-6	0%	1.6	-5%
O=C(CCN1CCCCC1)c1ccc2c(c1)OCO2	-7.9%	9.9	-11	2%	2.2	-17%
Clc1ccc(C2Nc3cccc4cccc(c34)N2)cc1	.	1.8	4	-2%	0.0	-3%
CC1(C)CC2CC(C)(CN2C(=O)COc2cccc3ccccc23)C1 (centres undefined)	2.0%	0.4	1	-19%	3.1	-5%
O=C(OCCSCCOC(=O)C1CC=CCC1)C1CC=CCC1 (centres undefined)	-1.0%	.	1	7%	1.0	-1%[15.4 µM]
COc1ccc(OCCNC(=S)Nc2cccc3ccccc23)cc1	-2.3%	0.1	-8	-21%	0.3	-31%[inhibitor]
COc1cccc(N=C2SC(C(=O)Nc3ccccc3F)CC(=O)N2C)c1 (centres undefined)	0.3%	-1.8	-2	-1%	1.4	-45%[inhibitor]
O=C(NCCCN1CCOCC1)c1ccc(NS(=O)(=O)c2cccc([N+](=O)[O-])c2)cc1	-0.8%	0.6	28	16%	0.0	-7%
COc1cc(/C=N/NC(=O)c2ccncc2)ccc1Oc1ccc([N+](=O)[O-])cn1	.	2.1	1	11%	-0.3	-2%
CCc1cccc(OCCCCNCCCOC)c1	-1.2%	3.8	-4	13%	-0.8	-3%[15.4 µM]
COc1ccc(OCC(=O)OC(C)CN2CCCCC2)cc1 (centres undefined)	-0.6%	6.1	1	9%	0.7	11%[15.4 µM]
CCOC(=O)c1sc2nc(C)nc(N3CCN(c4ncccn4)CC3)c2c1C	-27%	5.3	-7	-9%	0.5	9%
CC(C)CNC1=CC(=O)CC(c2ccco2)C1 (centres undefined)	-4.8%	2.4	21	0%	0.4	10%
Cc1c(NC(=O)c2ccccc2NC(=O)c2ccccc2)cccc1C(=O)O	-2.4%	3.7	-21	8%	0.6	-2%[15.4 µM]
CCCCN1C(=O)C(CC(=O)NC(c2ccccc2)c2ccccc2)CC(C(=O)N2CCOCC2)=C1C (centres undefined)	-1.3%	.	-8	.	0.2	-3%
CCc1[nH]nc2c1C(Cc1ccccc1)C(C#N)=C(N)O2 (centres undefined)	-9.3%	4.4	-3	4%	-0.4	-27%
CC(C)=C1C2C=CC1C(C(=O)Nc1cccc(C)c1)C2C(=O)O (centres undefined)	1.2%	-0.5	-7	-6%	3.0	0%
Cc1cc(NC(=O)c2ccc(S(=O)(=O)N(C)C)cc2)no1	-0.5%	0.8	3	2%	-0.7	5%
O=C(CSc1nnc(-c2ccncc2)n1Cc1ccco1)Nc1cccc(O)c1	.	-2.7	-7	-3%	0.7	?
COc1ccccc1NC(=O)CC1COc2ccccc2O1 (centres undefined)	0.6%	3.1	-1	2%	-1.7	?
CCc1cccc(Nc2cc(C)nc3ncnn23)c1	-4.6%	1.2	-4	3%	1.2	1%
O=C(OCCOc1ccc(Br)cc1)c1cnccn1	1.2%	2.8	-8	5%	-0.6	-1%
CC(=O)Nc1ccc(SCC(=O)OCC(=O)NC(=O)NC2CCCC2)cc1	.	-1.4	28	-14%	2.0	11%
Cc1ccccc1Oc1ncnc2sccc12	4.9%	1.9	27	0%	0.0	-2%
CCOC(=O)c1c(C)[nH]c(C)c1S(=O)(=O)N(C)CC(=O)NCc1ccc(Cl)cc1	-0.2%	.	14	.	-0.6	.
COCCn1c(C)cc(C(=O)CSc2nc3ccccc3c(=O)[nH]2)c1C	-3.0%	4.5	3	9%	1.2	-21%
O=C1/C(=C/c2ccc(Br)cc2)Oc2cc(O)ccc21	.	?	31	-25%	22	25%
Cc1ccc(NC(=O)CC2Oc3ccc(C)cc3NC2=O)cc1 (centres undefined)	-2.9%	1.9	-14	6%	0.8	4%
COc1ccc(Oc2c(C=O)c3ccccc3n2C)cc1	-0.6%	-0.8	17	-9%	1.2	19%
COc1ccc(N2CCN(C(=O)Cn3c(-c4cccs4)cc4ccccc43)CC2)cc1	32µM*	.	-2	.	0.9	.
C/C(=N\n1c(C)nc2ccccc2c1=O)c1ccc(C)o1	-1.8%	-0.8	10	0%	-0.3	11%[15.4 µM]
Cc1cc(C)c(N2CCN(S(=O)(=O)N3CCCCCC3)CC2)c(C)c1	-5.9%	-0.6	3	-18%	-0.1	-29%
CCOc1ccc(C(=O)CCCC(=O)c2ccc(OCC)cc2)cc1	0.9%	-0.6	11	7%	1.1	-16%
COCCNC(=O)c1ccc2c(c1)S(=O)(=O)c1cc(Cl)ccc1C2=O	0.0%	.	25	2%	-0.1	.
CCc1noc(C)c1C(=O)N1CCN(S(=O)(=O)c2c(C)cc(C)cc2C)CC1	-1.6%	.	-19	-16%	0.0	-3%
Cc1onc(-c2ccccc2)c1C(=O)N1CCN(C/C=C/c2ccccc2)CC1	-0.2%	0.2	-5	-6%	-1.0	-28%
Cc1nc2c(ccc3c2ccc2nc(C)sc23)s1	-6.7%	-1.3	18	11%	-0.2	-1%
C=CCOc1ccc(C2NC(=S)NC(c3ccccc3)=C2C(C)=O)cc1OC (centres undefined)	.	-5.6	17	-2%	1.8	-10%
NC(CSC(c1ccccc1)(c1ccccc1)c1cccc2ccccc12)C(=O)O (centres undefined)	-1.4%	.	-28	-15%	0.5	25%
CSCC[C@H](NC(=O)OC(C)(C)C)c1nnc(SCC(=O)N(C)C)o1	0.7%	3.8	23	2%	-0.7	?
CC(C)C[C@H](N)c1cn([C@@H](Cc2ccc(O)cc2)C(=O)N2CCNCC2)nn1	1.6%	-22	-3	11%	0.8	.
O=C(CCCNS(=O)(=O)c1ccc(Br)cc1)N1CC[C@@]2(O)CCCC[C@H]2C1	-0.7%	2.5	-16	0%	-0.3	2%
Cc1cc(=O)oc2cc(OCC(=O)N3CCCC(C)C3)ccc12 (centres undefined)	32µM*	3.3	22	-14%	-0.7	3%
CCCCOc1ccc(C(=O)Nc2ccc(CN3CCOCC3)cc2)cc1	0.2%	-0.3	-10	5%	0.0	?
CCc1nnc(NS(=O)(=O)c2ccc(NC(=O)COc3ccc(Cl)c(C)c3)cc2)s1	.	-5.8	9	-14%	0.1	-13%
COc1ccc(N2CCN(C(c3cccs3)C(C)NC(=O)C(=O)N3CCCC3)CC2)cc1 (centres undefined)	-3.2%	-3.3	-7	-6%	-0.8	7%
N=c1sccn1CC(=O)Nc1ccccc1Sc1ccccc1	.	1.4	11	-9%	-0.5	0%[15.4 µM]
Cc1[nH]c(=O)[nH]c(=O)c1S(=O)(=O)N1CCCC(C(=O)N2CCN(c3ccccc3Cl)CC2)C1 (centres undefined)	-0.9%	0.0	-10	-2%	-0.6	9%
Cc1cc(C)c2c(n1)SCC(=O)N2CC(=O)Nc1ccc(F)cc1	-1.0%	1.3	33	-2%	-0.2	?
COc1cc(-c2csc(N3CCOCC3)n2)cc(OC)c1OC	-0.3%	-0.2	7	-2%	-0.8	?
C/C(CC(=O)Nc1ccccc1-c1ccccc1)=N\NC(=O)COc1ccc(C)cc1Br	-7.8%	-2.3	-13	-3%	0.2	8%
Cn1c(CNC(=O)CNS(=O)(=O)c2ccc(Br)cc2)cc(=O)n(C)c1=O	-0.8%	0.8	50	7%	-0.4	?
O=C(OCC(=O)N1CCCc2ccccc21)c1cccc(C(F)(F)F)c1	1.9%	.	-14	-13%	1.3	-33%
Cc1ccc(S(=O)(=O)CCC(=O)OCc2cc(C)ccc2C)cc1	.	.	-1	-12%	3.8	-1%[15.4 µM]
CCN(CCCNC(=O)COc1cc(=O)n(CC)c2ccccc12)c1ccccc1	-1.4%	2.2	10	-16%	2.0	2%
CC(C)c1ccc(S(=O)(=O)NCc2ccc3c(c2)CCN3C(=O)c2ccccc2)cc1	-0.4%	.	1	.	1.2	.
CCOC(=O)CCCCCC(=O)Nc1ccc2c(c1)C(=O)N([C@H](C)CO)C[C@@H](C)[C@@H](CN(C)C(=O)CCC(F)(F)F)OCCCC[C@H](C)O2	2.5%	.	-2	.	-0.5	-129%[inhibitor]

Complete entries from above.
CCN(CCCNC(=O)COc1cc(=O)n(CC)c2ccccc12)c1ccccc1 is listed as ClpP mod: -1.4%; Menin-MLL FL inh: 2.2; TRPML1 blocker: 10; gsp antagonist: -16%; TRPML1 ag: 2.0; gsp agonist: 2%
O=C(OCC(=O)N1CCCc2ccccc21)c1cccc(C(F)(F)F)c1 is listed as ClpP mod: 1.9%; Menin-MLL FL inh: .; TRPML1 blocker: -14; gsp antagonist: -13%; TRPML1 ag: 1.3; gsp agonist: -33%

Assay outcomes (PubChem BioAssay)
